Rango-impB inh = qHTS Assay for Inhibitors of Rango (Ran-regulated importin-beta cargo) - Importin beta complex formation | Importin subunit beta-1 (Homo sapiens), Q14974 | Rango CFP/YFP FRET sensor + importin beta, 45 min | AID 540263, 2011 | actives 0.031% (n = 340,000) | Potency, µM (titrated, usually from 92.2 µM), without a hit: at the highest dose inhibition of complex formation; active = rising FRET ratio curve, often small or poorly fitted; inconclusive = mostly compound fluorescence or quenching in the first reads; inactive = flat curves in all reads;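 note: potency is the fitted concentration of half-maximal effect; 0% = DMSO wells and 100% = buffer wells lacking importin beta; nearly all actives have a fitted effect of over 15% in size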
Target sequence (Q14974 whole entry, looked up): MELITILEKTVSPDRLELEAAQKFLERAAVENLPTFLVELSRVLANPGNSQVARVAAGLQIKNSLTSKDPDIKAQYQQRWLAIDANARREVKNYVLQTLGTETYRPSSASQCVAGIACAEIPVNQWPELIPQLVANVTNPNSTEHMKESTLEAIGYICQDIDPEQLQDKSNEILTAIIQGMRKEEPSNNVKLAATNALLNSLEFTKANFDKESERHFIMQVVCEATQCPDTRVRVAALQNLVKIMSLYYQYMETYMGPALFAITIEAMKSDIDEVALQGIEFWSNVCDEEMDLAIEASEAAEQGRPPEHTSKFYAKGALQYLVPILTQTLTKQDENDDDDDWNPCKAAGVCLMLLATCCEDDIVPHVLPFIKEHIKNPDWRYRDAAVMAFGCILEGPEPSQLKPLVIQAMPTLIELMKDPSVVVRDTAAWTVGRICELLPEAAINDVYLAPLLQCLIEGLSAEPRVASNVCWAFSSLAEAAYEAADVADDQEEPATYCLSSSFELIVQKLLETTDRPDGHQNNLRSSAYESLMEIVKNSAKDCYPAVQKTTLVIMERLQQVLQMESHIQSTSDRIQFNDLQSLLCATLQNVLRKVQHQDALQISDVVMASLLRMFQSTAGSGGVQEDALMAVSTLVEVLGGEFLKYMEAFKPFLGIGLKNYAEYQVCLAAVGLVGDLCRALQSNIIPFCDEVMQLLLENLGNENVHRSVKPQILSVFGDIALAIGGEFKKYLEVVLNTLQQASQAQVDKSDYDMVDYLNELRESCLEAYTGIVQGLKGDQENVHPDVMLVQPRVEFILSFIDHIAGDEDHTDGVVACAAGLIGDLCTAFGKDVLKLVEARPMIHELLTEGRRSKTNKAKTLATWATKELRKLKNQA
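FRET biosensor Rango (snurportin 1 IBB between N-terminal EYFP and C-terminal Cerulean), 50 nM in PBS/1 mM DTT/0.02% Tween-20/0.1% BSA, preincubated 5 min RT with compound; 0.125 microM importin beta added, 45 min RT, CFP/YFP FRET ratio read.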
miR-21 FLuc = qHTS Assay for Modulators of miRNAs and/orActivators of miR-21. HeLa miR-21 FLuc reporter, luciferase, 48 h. Potency, µM (highest dose often 38.3 µM), without a hit: at the highest dose reporter change, positive = more light. 340,000 tested, under 10 active. AID 2288, 2010; active = well fitted rising curve with a large enough effect; inconclusive = small, poorly fitted or top-dose-only effect; inactive = no such curve, though single readings can be large or run the other way;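 note: % of control where 0% means no effect; miR-21 action dims this reporter so a rising signal means less miR-21 action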
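HeLa cells stably expressing CMV-driven firefly luciferase with a downstream miR-21 binding sequence, endogenously expressing miR-21, were treated with titrations (up to about 40uM final) for 48 hours at 37 degree Celsius. Luciferase luminescence was read after lysis.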
Rango release inh = qHTS Assay for Inhibitors of RanGTP induced Rango (Ran-regulated importin-beta cargo) - Importin beta complex dissociation; Snurportin-1 (Homo sapiens) + GTP-binding nuclear protein Ran (Homo sapiens) + Importin …; Biochemical FRET Rango-importin beta, RanGTP-induced dissociation; Potency, µM (highest dose often 46.1 µM), for inactives: top-dose activity change, negative = inhibition; actives 0.071% (n = 340,000); AID 540253, 2011; active means falling FRET ratio curve, often poorly fitted, with flat reads before Ran was added; inconclusive means other falling curves, or compound fluorescence or quenching; inactive means flat or rising ratio curve;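 note: potency is the fitted concentration of half-maximal effect; % of control where 0% means no effect; nearly all actives have a fitted effect of over 45% in size; -100% = wells without RanGTP and RCC1; the record marks most hits as doubtful in a second field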
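Compounds sat 5 min at room temperature with 0.1 uM Rango biosensor plus 0.25 uM importin beta, then FRET pre-read. RanGTP-RCC1 (0.6 uM Ran, 2mM GTP, 0.2 uM RCC1) added for 45 min, and the CFP/YFP post-read measured blocked complex dissociation.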
GLA inh pH 4.5 = qHTS Assay for Inhibitors of Human alpha-Galactosidase at pH 4.5; Alpha-galactosidase A (Homo sapiens), P06280; purified enzyme, 4-MU-alpha-Gal fluorescence, pH 4.5; activity change, negative = inhibition, % at 105 µM; 230,000 tested, under 10 active; AID 1467, 2008; inconclusive = small, poorly fitted or top-dose-only inhibition, or a rising curve; inactive = flat fitted curve, though single readings scatter; no compound was filed as active;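 note: 0% = full activity with enzyme and -100% = basal without enzyme; dose as in the result columns while the protocol names 77 µM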
* hit, by the source's call; ? = inconclusive; nt = not tested or not shown; & = joins results of further samples; [ ] = dose if it differs, or a comment.

Order of values: miR-21 FLuc, Rango release inh, Rango-impB inh, GLA inh pH 4.5
- O=C(C1CCCCC1)N(Cc1ccccc1)c1ccccn1
  10.7%, -19.5%, -2.6%, -8.3
- Cc1cc(C(=O)OCC(=O)c2cccs2)ccc1[N+](=O)[O-]
  nt, -15.8%, 0.0%, nt
- CCc1ccccc1NC(=O)c1cc2ncc(Br)cn2n1
  -17.7%, 0.1%, -0.9%, -4.3
- CCCn1cnc2c(=S)nc(N)[nH]c21
  -4.3%, -4.9%, -1.5%, -5.4
- COc1ccc(CCNC/C=C/c2ccccc2)cc1
  nt, 13.0%, 2.5%, nt
- COC(=O)C1CCN(CC(=O)N(C)c2c(N)n(Cc3ccccc3)c(=O)[nH]c2=O)CC1
  nt, -19.4%, 0.8%, nt
- Cc1cccc(NC(=O)c2cc(NC(=O)C3CCCCC3C(=O)O)ccc2Cl)n1 (centres undefined)
  -3.8%, 30.5%, -0.5%, -8.8
- CC1(C)c2[nH]c3ccccc3c2C[C@@H]2C(=O)N(c3cc(F)ccc3F)C(=O)N21
  nt, 14.8%, 0.8%, nt
- O=C(NC1CCCCC1)c1n[nH]c2c1CC(c1ccccc1)CC2 (centres undefined)
  nt, 0.3%, 3.7%, nt
- CCOC(=O)N1CCC(NC(=O)Cn2nc(-c3ccccc3)ccc2=O)CC1
  -4.9%, -1.8%, 1.5%, 1.2
- Cc1cc2oc(=O)cc(CN3CCN(S(=O)(=O)c4cccs4)CC3)c2cc1C
  -6.1%, 5.9%, 0.2%, -3.1
- O=C(CCCSc1nc(-c2ccco2)cc(C(F)(F)F)n1)Nc1ccc2c(c1)OCO2
  -16.9%, 12.9%, -5.2%, 9.6
- Cc1nn2c(Nc3ccc(F)cc3)c3c(nc2c1-c1ccccc1)CCC3
  -0.9%, -7.1%, -0.2%, 2.8
- COc1ccc(NC(=O)C(CC(C)C)NS(=O)(=O)c2ccc3c(c2)CCN3C(C)=O)cc1OC (centres undefined)
  -0.8%, -5.9%, 8.6%, 3.4
- Cc1ccc(C)c(N2CCN(C(=O)CCc3nc(-c4ccccc4C)no3)CC2)c1
  nt, -8.7%, -1.0%, nt
- CC(C)(C)OC(=O)N1CCCC(C(=O)Nc2ccc(C(=O)NCCc3ccccc3)cc2)C1 (centres undefined)
  nt, 8.2%, -2.2%, nt
- COc1ccc(/C=N/OCC(=O)N(Cc2ccc(OC)cc2)c2ccccc2C(=O)O)cc1
  -9.3%, 19.1%, -0.8%, -5.9
- CN(Cc1cc2ccccc2[nH]c1=O)C(=O)c1cccs1
  -9.5%, -3.2%, 3.1%, -9.4[21.1 µM]
- Cc1nccn1CCC1CCCCN1C(=O)CCc1nnc(-c2ccsc2)o1 (centres undefined)
  -4.6%, 9.4%, 3.4%, -4.4
- COc1ccc(CSc2nnc(-c3ccncc3)n2C)cc1F
  -6.7%, -8.9%, 1.5%, nt
- CN(Cc1ccccc1)c1oc(COc2ccccc2F)nc1C#N
  -8.6%, -25.0%, 1.9%, -6.5
- COc1ccc(NC(=O)CCCCC(=O)Nc2ccc(OC)cc2)cc1
  -2.7%, 0.3%, -2.1%, nt
- Cc1nn(Cc2ccccc2)c(Cl)c1C(=O)NCCc1ccccc1
  -64.8%, -0.7%, -2.4%, -28.8
- COc1ccc(C(=O)/C=C/C(=O)N(Cc2ccccc2OC)C(C(=O)NC2CCCCC2)c2ccncc2)c(O)c1 (centres undefined)
  0.8%, -5.2%, -1.7%, -1.3
- COc1ccc(C(=O)Cn2c(N3CCOCC3)nc3ccccc32)cc1OC
  0.7%, nt, nt, 0.0
- O=C(CSc1ccc2nnc(-c3cccnc3)n2n1)Nc1ccc(F)cc1F
  1.2%, 2.6%, 0.8%, nt
- Cc1ccccc1Nc1nc(N)nc(CSc2nnc(C)n2C)n1
  -0.3%, 0.5%, 0.2%, 10.3
- O=C(Nc1cccnc1)C1CCN(S(=O)(=O)c2cccs2)CC1
  -2.0%, 13.4%, 0.0%, 8.9
- COc1cc2c(c(OC)c1OC)-c1ccc(OC)c(=O)cc1[C@@H](NC(C)=O)CC2
  15.5%, 2.4%, 1.4%, -14.3&-17.3&-8.8
- Nc1nonc1C(=O)NCCNC(=O)c1cccs1
  -2.7%, -3.9%, -0.1%, 1.9
- COc1cc(C(C)=O)ccc1OCC(O)CN1CCN(c2cc(C)cc(C)c2)CC1 (centres undefined)
  10.6%, -13.7%, 1.7%, nt
- Cc1cc(Cl)c2oc(C(=O)N3CCC(O)(c4ccccc4)CC3)c(C)c2c1
  -18.8%, 1.1%, 3.1%, nt
- CN(C)/C=C(\C#N)S(=O)(=O)C(C)(C)C
  -0.6%, 16.8%, 3.8%, 4.5
- CC(=O)NCc1ccc(S(=O)(=O)NC(C(=O)O)C(C)C)cc1 (centres undefined)
  -1.3%, -22.1%, -5.4%, -0.4
- O=C(O)c1cccc2c(-c3ccccc3)c(-c3ccccc3)[nH]c12
  -6.4%, 0.8%, 0.1%, 0.0
- COc1ccc(C2C(C(C)=O)=C(O)C(=O)N2Cc2ccccc2)c(OC)c1 (centres undefined)
  -8.0%, 0.1%, -1.2%, nt
- Cc1cccc(C)c1OCC(=O)NCc1nnc(SCC(=O)NC2CCCCC2C)n1C (centres undefined)
  0.2%, -23.4%, -4.2%, -5.0
- Cc1ccc(N2CCN(S(=O)(=O)c3nnc(NC(=O)c4ccccc4)s3)CC2)cc1
  -3.4%&-3.6%, 14.6%, -4.3%, nt
- CC(Nc1n[nH]c(=O)[nH]c1=O)C(=O)N/N=C/c1cccs1 (centres undefined)
  -0.7%, -4.2%, -2.6%, -1.4
- Cc1c(NC(=O)CCC2CCCCC2)c(=O)n(-c2ccccc2)n1C
  0.2%, 1.4%, -3.8%, 9.3
- COc1ccccc1C(=O)C1CCCN(C(=O)c2ccccc2Cl)C1 (centres undefined)
  1.2%, 2.1%, -0.4%, nt
- Cc1ccc(C(=O)c2coc3ccc(O)c(CN(C)C)c23)cc1
  0.0%, 14.0%, 0.6%, nt
- O=C(Nc1cccc(Cl)c1)C1CCCN(S(=O)(=O)c2ccc(F)cc2)C1 (centres undefined)
  24.2%, -0.4%, 3.6%, -15.8
- CC(=O)N1CCc2c(sc(NC(=O)C3CC3)c2-c2nc3ccccc3s2)C1
  1.4%, ?, ?, -7.3
- COC(=O)[C@H](Cc1ccccc1)NS(=O)(=O)c1ccc(F)cc1Br
  nt, -5.9%, 8.9%, nt
- COc1ccc(OC)c(NC(=O)CSc2sc3c(O)cc(=O)[nH]c3c2C#N)c1
  6.5%, 0.9%, -1.8%, nt
- CCn1c(/C=C/c2ccccc2Cl)nc2ccccc2c1=O
  -48.2%, 4.0%, 0.3%, nt
- COc1cc(NC(=O)COc2cc3oc(=O)cc(C)c3cc2Cl)cc(OC)c1OC
  -2.6%, -11.9%, 1.0%, nt
- O=C(C/C=N/OCc1c(Cl)cccc1Cl)c1ccc(Cl)cc1
  -15.4%, 10.1%, -0.2%, -2.7
- c1ccc2c(c1)CCN2CCN1CCc2ccccc21
  -14.5%, 14.0%, -2.4%, -7.8
- COc1ccc(C(=O)Nc2ccc(C)cn2)c(OC)c1
  25.3%, -0.4%, 16.0%, -9.0
- O=C(Cc1cccc(NC(=O)C2CCN(C(=O)CCc3ccccc3)CC2)c1)Nc1cccc(C(=O)N2CCCC2)c1
  nt, 15.8%, 0.4%, nt
- CCn1c(CN(C)c2ccccc2)nc2ccccc21
  8.6%, 1.6%, -0.1%, nt
- CCc1ccc(C(C)NC(=O)/C=C/c2ccc(Br)cc2)cc1 (centres undefined)
  -0.9%, -2.9%, -0.2%, 6.1
- Cc1nc(SC2CCOC2=O)c2c(C)c(C)sc2n1 (centres undefined)
  -2.9%, -3.4%, -1.2%, 7.4
- Cc1ccc(N2CCN(/N=C/c3ccccc3[N+](=O)[O-])CC2)cc1
  -13.1%, 11.7%, -0.4%, 2.0
- Cc1cc(NC(=O)c2ccc(Br)o2)ccc1NC(=O)c1ccco1
  -32.8%, 0.8%, -2.9%, nt
- CCOc1ccc(S(=O)(=O)Nc2ccc(OC)nc2)cc1
  21.2%, 17.6%, -0.8%, nt
- c1ccc2c(c1)Nc1ccncc1S2
  12.0%, -6.5%, 3.1%, 0.1
- COc1cccc(CN2CCC(Oc3ccc(C(=O)N4CCCCC4)cc3)CC2)c1
  -0.3%, -10.1%, -2.8%, nt

Other compounds:
Order of values: miR-21 FLuc, Rango release inh, Rango-impB inh, GLA inh pH 4.5
- COc1ccc(C(=O)NCc2nnc(SCC(=O)NCc3ccc(F)cc3)o2)cc1
  2.0%, 16.8%, -2.8%, 2.4
- CCCOc1ccc(C2=CSC3=NCCN23)cc1[N+](=O)[O-]
  5.7%, 9.3%, -1.6%, nt
- CCN1C(=O)CC(N2CCN(c3cccc(OC)c3)CC2)C1=O (centres undefined)
  4.7%, -1.4%, -3.9%, 2.7
- COc1ccc(N2CC(=O)N(c3ccc(OC)c(OC)c3)CC2=O)cc1OC
  -2.4%, 15.9%, 0.7%, -9.1
- Cc1cccc(OCC(=O)NCc2ccncc2)c1C
  -9.5%, 0.8%, 0.0%, 1.6
- O=C(CN(CC1CCCO1)C(=O)CNS(=O)(=O)c1ccc(F)cc1)NCc1ccco1 (centres undefined)
  0.3%, 7.4%, 3.4%, -3.3
- O=C(NCCN1CCCc2ccccc21)C1CCC(=O)N(CCc2ccccc2)C1 (centres undefined)
  -4.9%, ?, ?, nt
- O=C(Nc1ccc(F)cc1F)c1cc(=O)n(-c2ccccc2)c(=O)[nH]1
  3.4%, 8.4%, -3.2%, 2.2
- O=C(O)C1CCCCC1C(=O)Nc1cccc(Br)c1 (centres undefined)
  nt, 1.5%, 4.1%, nt
- COCCNC(=O)c1cnn2c1NC(c1ccco1)CC2C(F)(F)F (centres undefined)
  3.0%, -6.9%, 4.1%, -2.8
- CCOC(=O)c1ccccc1NC(=O)COC(=O)CCC1CCCC1
  nt, 4.7%, 0.3%, nt
- Cc1ccc([C@@H]2CC=C(C(=O)O)[C@H](c3ccccc3)N2S(=O)(=O)c2ccccc2C)cc1
  nt, -5.9%, 3.9%, nt
- CCN(CC)S(=O)(=O)c1ccc(N2CCOCC2)c(NC(=O)C23CC4CC(CC(Cl)(C4)C2)C3)c1
  -1.1%, 9.0%, -4.1%, 0.8
- CN(C)C1=NC[C@H](Cc2ccccc2)N1CC1CCCCCC1
  nt, 22.9%, 2.6%, nt
- CC(C)(C)C(=O)n1nc(-c2ccccc2)oc1=O
  -6.0%, -8.8%, 2.1%, -2.4
- NC(=O)[C@@H]1CCCCNc2c(F)cc([N+](=O)[O-])cc2C(=O)N[C@@H](CCCN=C(N)N)C(=O)NCC(=O)N1
  -6.6%, 0.3%, 0.8%, -20.9
- O=C1/C(=C\c2ccc(O)cc2)SC(=S)N1Cc1ccccc1
  -4.7%, ?, ?, nt
- O=C(Oc1c(-c2ccccc2)c(=O)n2c3c(cccc13)CC2)c1ccc(F)cc1
  4.4%, 1.8%, 0.5%, 3.8
- CC(C)NC(=O)N(C)C[C@@H]1Oc2c(NC(=O)Nc3ccccc3)cccc2C(=O)N([C@H](C)CO)C[C@H]1C
  nt, -7.0%, 1.6%, nt
- Fc1ccccc1-n1c(-c2ccc3ccccc3n2)n[nH]c1=S
  -41.4%, -1.0%, -0.7%, 1.3
- CC1(c2nnc(-c3ccc(Cl)cc3)o2)CC(c2c(Cl)cccc2Cl)=NO1 (centres undefined)
  -5.3%, 0.5%, -3.9%, 6.4
- O=C(Nc1nc2c(F)cccc2s1)c1ccco1
  -18.1%, 5.5%, 2.9%, nt
- O=C(c1cccc(Cl)c1)N1CCC(c2nc3ccccc3[nH]2)CC1
  16.0%, -1.5%, -1.2%, -0.9

These rows are one share of the data; the hit share may differ from the screen's.
